Compound activity deposited in PubChem by Broad Institute.
YB-1 expr inh – YB-1 expression inhibition | delta delta Cp (YB-1 minus CDIP) (no concentration beside the values) | U2OS, qRT-PCR YB-1 vs CDIP delta delta Cp, 16 h; stronger effect = higher value; zero = DMSO, each unit about twofold | AID 434959 | 30,000 tested, 0.37% active;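 active means delta delta Cp rounded down to an integer at or above 3, about 3 SD of DMSO wells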;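 further: higher means less YB-1 transcript or more CDIP transcript relative to DMSO; stock transfer was 100 nL into about 100 µL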
PD-1 reversal – activators reversing PD-1 mediated T-cell inhibition; primary human CD4 T cells, PD-L1 beads, CellTiter-Glo 96 h; activation, % (concentration not given with the values); 29,000 tested, under 10 active; AID 2316;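 active means replicate mean of 50% or more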;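 further: 0% = median vehicle wells and 100% = positive control; 100 nL library stock added to about 50 µL; numbers are from one replicate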
MITF inhib – blocks MITF activity; TRPM1 promoter luciferase, luminescence, 24 h; inhibition, % (test concentration not listed); 37,000 tested, 0.28% active; AID 2240;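 active means most replicates at 85% or more, or half of them and the mean; inconclusive means half reach 85% but not the mean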;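 further: human melanocyte line stably carrying TRPM1 promoter luciferase reporter; 0% = vehicle wells and 100% = a positive control; the first replicate is given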
Shh pathway inh – Sonic Hedgehog pathway inhibition | 22,000 tested, 2.1% active | Shh-LIGHT2 Gli-luciferase reporter, 30 h | inhibition, % (concentration not given with the values);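 active means replicate mean of 65% or more; inconclusive means mean lower but half the replicates past it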;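 further: pathway switched on by Shh-conditioned medium diluted 1 in 25 in low serum; 100 nL library stock added to about 40 µL; 0% = median of neutral wells and 100% = positive control level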
Starred values were filed as active, the others as inactive; ? = inconclusive; · = not tested or not shown.

Structure	YB-1 expr inh	PD-1 reversal	MITF inhib	Shh pathway inh
Cc1ccc(C23CC4CC(CC(CN)(C4)C2)C3)cc1C	-0.25	-7.6	94*	·
O=C1CC(c2ccccc2)N=C(SCC(=O)Nc2ccc3ccccc3c2)N1 (configuration not stated)	·	-0.9	16	·
C[C@@H]1CCCCO[C@H](CN(C)S(=O)(=O)c2ccccc2)[C@@H](C)CN([C@H](C)CO)C(=O)c2cc(NC(=O)Nc3ccccc3)ccc2O1	0.21	·	0	?
C[C@H](CO)N1C[C@H](C)[C@@H](CN(C)Cc2ccc(C(F)(F)F)cc2)Oc2ccc(NC(=O)Nc3ccc(C(F)(F)F)cc3)cc2C1=O	0.22	·	11	-53
c1ccc2cc(OCCN3CCOCC3)ccc2c1	0.1	0.1	-18	·
CNC[C@@H]1Oc2ccc(NS(=O)(=O)c3ccccc3)cc2C(=O)N([C@H](C)CO)C[C@H]1C	-0.0094	3.4	2	-1
COc1ccc(CN(C)C[C@@H]2Oc3ccc(NS(=O)(=O)c4ccc(C)cc4)cc3C(=O)N([C@@H](C)CO)C[C@H]2C)cc1	-0.1	·	0	11
N#Cc1ccccc1CSc1nnc(N)n1-c1ccccc1	·	0.6	-14	·
CNC(=O)CN(c1ccccc1)S(=O)(=O)c1ccc(F)cc1	·	2.7	-7	·
CC(C)(C)C(=S)Nc1cccc(Cl)c1	0.45	-0.3	3	-33
Cc1cc(Br)c(NC(=O)CSc2nccc(=O)[nH]2)cc1C	·	-0.2	-4	·
C[C@H](CO)N1C[C@H](C)[C@H](CN(C)S(=O)(=O)c2ccc(F)cc2)Oc2ccc(NC(=O)NC3CCCCC3)cc2C1=O	-0.0097	-1.0	8	12
CCn1c(SCC(=O)Nc2ccc(F)cc2)nnc1-c1cccc(Cl)c1	·	-2.0	14	·
O=C(COc1ccc(Cl)cc1Cl)Nc1c[nH]c(=O)[nH]c1=O	·	0.3	-4	·
C[C@H]1CN([C@@H](C)CO)C(=O)c2cccc(NC(=O)c3ccc(-c4nccs4)cc3)c2O[C@H]1CN(C)Cc1ccc2c(c1)OCO2	0.23	0.1	-21	-66
Cc1sc2ncnc(SCC(=O)Nc3ccccc3Cl)c2c1C	·	0.9	-11	·

Record cards, from the list above. Values in the order: YB-1 expr inh	PD-1 reversal	MITF inhib	Shh pathway inh
`c1ccc2cc(OCCN3CCOCC3)ccc2c1` is listed with 0.1	0.1	-18	·
`CNC(=O)CN(c1ccccc1)S(=O)(=O)c1ccc(F)cc1` is listed with ·	2.7	-7	·

The list continues:
Structure	YB-1 expr inh	PD-1 reversal	MITF inhib	Shh pathway inh
COc1ccc(S(=O)(=O)N(C)C[C@H]2Oc3c(NC(=O)Nc4ccc(F)cc4)cccc3C(=O)N([C@H](C)CO)C[C@H]2C)cc1	0.13	-1.1	-4	2
NC(=O)C1(N2CCCCC2)CCN(CC(=O)Nc2ccccc2Sc2ccccc2)CC1	·	-4.7	8	·
C[C@H](CO)N1C[C@H](C)[C@H](CN(C)Cc2ccc(Oc3ccccc3)cc2)Oc2ccc(NS(=O)(=O)c3ccccc3)cc2C1=O	-0.21	-2.0	3	41
c1ccc(Cn2c(SCCN3CCOCC3)nc3ccccc32)cc1	·	0.0	-6	·
Cn1nc([N+](=O)[O-])nc1Oc1ccccc1C(=O)N1CCOCC1	·	0.2	-1	·
C[C@@H]1CN([C@@H](C)CO)C(=O)c2cccc(NS(=O)(=O)c3ccc(Cl)cc3)c2O[C@H]1CN(C)C(=O)Nc1cccc2ccccc12	-0.05	2.5	9	22
C[C@@H]1CN([C@H](C)CO)C(=O)c2cc(NC(=O)Cc3cn(C)c4ccccc34)ccc2O[C@H]1CN(C)S(=O)(=O)c1ccccc1	-0.4	2.7	-4	·
C[C@@H]1CN([C@H](C)CO)C(=O)c2cc(NC(=O)C3CCCCC3)ccc2O[C@H]1CN(C)S(=O)(=O)c1ccc(F)cc1	0.098	·	-2	33
C[C@@H]1CN([C@H](C)CO)C(=O)c2cccc(NS(=O)(=O)c3cn(C)cn3)c2O[C@H]1CN(C)Cc1ccncc1	0.19	2.7	-3	-5
O=[N+]([O-])c1cccc(CSc2nnc(-c3ccco3)n2-c2ccccc2)c1	·	-1.1	-23	·
COc1ccc(NC(=O)CC2NC3CCCCC3NC2=O)cc1 (configuration not stated)	·	2.1	-14	·
COc1cccc(OC)c1OCCNCCO	·	0.9	7	·
C[C@H](CO)N1C[C@H](C)[C@@H](CN(C)Cc2ccc(Cl)c(Cl)c2)Oc2ccc(N(C)C)cc2C1=O	-0.078	-1.7	-4	-20
C[C@@H]1CCCCO[C@@H](CN(C)S(=O)(=O)c2ccc(F)cc2)[C@@H](C)CN([C@H](C)CO)C(=O)c2cc(NC(=O)Nc3ccc4c(c3)OCO4)ccc2O1	0.14	-0.9	-6	·
CNC[C@@H]1Oc2ccc(NC(=O)Nc3ccc(OC)cc3)cc2CC(=O)N([C@@H](C)CO)C[C@@H]1C	0.31	·	1	-15
C[C@H]1CN([C@@H](C)CO)C(=O)Cc2cc(NC(=O)Nc3ccc4c(c3)OCO4)ccc2O[C@@H]1CN(C)C(=O)Nc1ccc2c(c1)OCO2	-0.16	2.7	2	12
Cc1scc(C(=O)Nc2cccc(Cn3cccn3)c2)c1-c1ccccc1	·	-1.5	4	·
C[C@H](CO)N1C[C@H](C)[C@H](CN(C)C(=O)Nc2ccc3c(c2)OCO3)Oc2ccc(NC(=O)Nc3ccc(C(F)(F)F)cc3)cc2C1=O	-0.029	-1.7	18	7
COc1ccc(CN(C)C[C@H]2Oc3ccc(NS(=O)(=O)c4ccc(F)cc4)cc3CC(=O)N([C@@H](C)CO)C[C@H]2C)cc1	0.24	·	-27	14
CC(C)NC(=O)N(C)C[C@H]1Oc2ccc(NS(=O)(=O)c3cccs3)cc2C(=O)N([C@H](C)CO)C[C@@H]1C	-0.029	2.2	-1	·
C[C@@H]1CN([C@H](C)CO)C(=O)Cc2cc(NS(=O)(=O)c3ccccc3)ccc2O[C@H]1CN(C)C(=O)Nc1ccc(C(F)(F)F)cc1	0.27	-1.3	-6	-3
C[C@H]1CN([C@@H](C)CO)C(=O)c2cccc(NC(=O)C3CC3)c2O[C@@H]1CN(C)Cc1ccccc1	0.099	-1.0	-12	-4
COc1c2ccoc2cc2oc(=O)ccc12	-0.059	·	-12	5
C[C@H]1CN([C@@H](C)CO)C(=O)c2cc(NC(=O)C3CC3)ccc2O[C@@H]1CN(C)C(=O)Nc1cccc2ccccc12	-0.15	-0.8	-6	-8
C[C@H]1CN([C@@H](C)CO)C(=O)c2cc(NC(=O)CCC(F)(F)F)ccc2O[C@H]1CN(C)S(=O)(=O)c1cccs1	0.24	-0.6	5	·
CN(CC(=O)Nc1cccnc1)S(=O)(=O)c1cc(Cl)ccc1Cl	·	-0.6	-13	·
CSc1ccccc1NC(=O)CN(C1CCCCC1)S(=O)(=O)c1ccc(F)cc1	·	-2.0	-5	·
C[C@H](CO)N1C[C@H](C)[C@H](CN(C)C(=O)Nc2ccc(C(F)(F)F)cc2)Oc2ccc(NC(=O)Nc3ccc(F)cc3)cc2C1=O	0.012	-4.5	28	-11
C[C@@H]1CN([C@H](C)CO)C(=O)c2cc(NC(=O)c3ccncc3)ccc2O[C@H]1CN(C)CC1CCCCC1	-0.66	·	-9	·
C[C@H](CO)N1C[C@H](C)[C@@H](CN(C)S(=O)(=O)c2cccs2)Oc2c(NC(=O)Nc3ccccc3)cccc2C1=O	0.32	-0.8	-12	-7
C[C@H](CO)N1C[C@H](C)[C@@H](CN(C)Cc2ccc(Cl)c(Cl)c2)Oc2ccc(NC(=O)Nc3cccc4ccccc34)cc2C1=O	0.3	-2.8	28	·
C[C@@H]1CN([C@H](C)CO)C(=O)Cc2cc(NC(=O)C3CCCCC3)ccc2O[C@H]1CN(C)S(=O)(=O)c1cccs1	-0.0074	·	0	1
CN(C)S(=O)(=O)N1CCN(CC(=O)Nc2ccc(Br)cc2)CC1	·	-2.1	4	·
O=C(CSc1nnc(-c2cccnc2)n1-c1ccccc1)N1CCc2ccccc21	·	-2.1	-3	·
Cc1ccc(N(Cc2ccco2)C(=O)c2cccc(S(=O)(=O)N(C)C)c2)cc1	·	-1.7	10	·
C[C@H]1CN([C@@H](C)CO)C(=O)c2cccc(NC(=O)C3CC3)c2O[C@H]1CN(C)C	0.18	0.7	-6	-106
CNC(=O)c1cc2c(cn1)[nH]c1ccccc12	-0.024	·	-41	-53
C[C@H]1CN([C@@H](C)CO)C(=O)c2cc(NS(=O)(=O)c3ccc(F)cc3)ccc2O[C@@H]1CN(C)S(=O)(=O)c1ccc(F)cc1	-0.19	·	-9	·
C[C@@H]1CN([C@H](C)CO)C(=O)c2cccc(NS(=O)(=O)c3ccccc3)c2O[C@H]1CN(C)Cc1ccc(C(=O)O)cc1	-0.038	·	4	-73
COc1ccc(-n2nc3cc(C)c(NC(=O)COc4cccc(C)c4)cc3n2)cc1	·	1.3	-21	·
C[C@@H]1CN([C@H](C)CO)C(=O)c2cc(NC(=O)C3CC3)ccc2O[C@@H]1CN(C)S(=O)(=O)c1ccccc1	-0.011	0.0	-3	8
C[C@H]1CN([C@@H](C)CO)C(=O)c2cccc(NS(=O)(=O)c3cn(C)cn3)c2O[C@@H]1CN(C)S(=O)(=O)c1cn(C)cn1	1.8	-1.4	-1	-101
C[C@@H]1CN([C@@H](C)CO)C(=O)c2cc(NS(=O)(=O)c3ccc(F)cc3)ccc2O[C@@H]1CN(C)C(=O)Nc1ccc(F)cc1	0.038	-0.9	-2	3
C[C@@H]1CN([C@H](C)CO)C(=O)Cc2cc(NC(=O)Cn3cnnn3)ccc2O[C@@H]1CN(C)C(=O)Nc1ccc(C(F)(F)F)cc1	-0.24	0.4	-2	2
COc1ccc(CN(C)C[C@H]2Oc3ccc(NS(=O)(=O)c4ccc(Cl)cc4)cc3C(=O)N([C@H](C)CO)C[C@@H]2C)cc1	0.044	·	3	20
C[C@@H]1CN([C@@H](C)CO)C(=O)c2cc(NS(=O)(=O)c3ccc(Cl)cc3)ccc2O[C@@H]1CN(C)S(=O)(=O)c1ccc(F)cc1	0.64	-2.9	22	22
O=C(NC1CCN(Cc2cccc3ccccc23)CC1)c1ccccc1	0.024	-0.5	9	27
Cc1cc(C(=O)Nc2cccc3c2O[C@H](CN(C)S(=O)(=O)c2ccc(F)cc2)[C@H](C)CN([C@H](C)CO)C3=O)n(C)n1	-0.12	2.3	-7	17
CC12CC3CC(C1)CC(NC(=O)c1ccc(Cl)cc1Cl)(C3)C2	-0.09	-1.2	34	-60
CCc1ccc2oc(-c3ccc(C)c(NC(=O)COc4ccccc4)c3)nc2c1	·	-0.7	-15	·
C[C@H]1CN([C@@H](C)CO)C(=O)c2cc(N(C)C)ccc2O[C@@H]1CN(C)Cc1ccc(Cl)c(Cl)c1	0.0031	-0.4	3	-3
C[C@@H]1CCCCO[C@H](CN(C)C(=O)NC2CCCCC2)[C@@H](C)CN([C@H](C)CO)C(=O)c2cc(NC(=O)Nc3cccc4ccccc34)ccc2O1	0.16	·	-45	22
Cc1nc(CSc2nc3sc(C)c(C)c3c(=O)n2-c2ccccc2)cs1	·	0.6	-3	·
COc1ccc(S(=O)(=O)Nc2cccc3c2O[C@@H](CN(C)Cc2ccc(C(F)(F)F)cc2)[C@@H](C)CN([C@@H](C)CO)C3=O)cc1	0.037	-2.3	1	25
COc1ccc(CC(=O)NN2CCN(c3ccccc3)CC2)cc1	0.19	-0.3	-20	-20
C[C@H]1CN([C@@H](C)CO)C(=O)c2cccc(NS(C)(=O)=O)c2O[C@@H]1CN(C)C(=O)NC1CCCCC1	0.021	2.9	-12	-3

The list continues.
Structure	YB-1 expr inh	PD-1 reversal	MITF inhib	Shh pathway inh
CC1(C)CC(=O)C2=C(C1)NC(SCC(=O)Nc1ccccc1)=C(C#N)C2c1ccco1 (configuration not stated)	·	-2.7	-22	·
C[C@H](CO)N1C[C@H](C)[C@H](CN(C)Cc2ccc(C(=O)O)cc2)Oc2c(NC(=O)c3nc4ccccc4s3)cccc2C1=O	0.077	-0.8	-19	-12
CCCCN(C(C)C)S(=O)(=O)c1ccc(C)cc1	0.076	-1.4	22	-35
C[C@H]1CN([C@@H](C)CO)C(=O)Cc2cc(N(C)C)ccc2O[C@H]1CN(C)S(C)(=O)=O	-0.18	-3.7	-4	-15
Cc1ccc(S(=O)(=O)Nc2ccc3c(c2)C(=O)N([C@H](C)CO)C[C@@H](C)[C@H](CN(C)CC2CC2)O3)cc1	0.28	1.4	0	10
Cc1noc(C)c1S(=O)(=O)N(C)C[C@@H]1Oc2ccc(NS(=O)(=O)c3ccc(Cl)cc3)cc2C(=O)N([C@@H](C)CO)C[C@@H]1C	0.4	-0.3	-10	6

Some of the compounds tested; the hit share may differ from the screen's.
